Screening data (PubChem)
Six1-Eya2 inh = blocks human Six1 binding to Eya2. 360,000 tested, 0.56% active. activity change, % (concentration not given with the values). AID 651725. AlphaScreen GST-Six1/His-Eya2 binding, biochemical; stronger effect = lower value; control for the full effect not named in the record; in the data active = activity change below about -65%; inconclusive = about -30% to -65%; inactive = above about -30%; note: % is set by controls: 0 for no effect and ±100 for the full control effect
Target sequence (O00167 whole entry, looked up): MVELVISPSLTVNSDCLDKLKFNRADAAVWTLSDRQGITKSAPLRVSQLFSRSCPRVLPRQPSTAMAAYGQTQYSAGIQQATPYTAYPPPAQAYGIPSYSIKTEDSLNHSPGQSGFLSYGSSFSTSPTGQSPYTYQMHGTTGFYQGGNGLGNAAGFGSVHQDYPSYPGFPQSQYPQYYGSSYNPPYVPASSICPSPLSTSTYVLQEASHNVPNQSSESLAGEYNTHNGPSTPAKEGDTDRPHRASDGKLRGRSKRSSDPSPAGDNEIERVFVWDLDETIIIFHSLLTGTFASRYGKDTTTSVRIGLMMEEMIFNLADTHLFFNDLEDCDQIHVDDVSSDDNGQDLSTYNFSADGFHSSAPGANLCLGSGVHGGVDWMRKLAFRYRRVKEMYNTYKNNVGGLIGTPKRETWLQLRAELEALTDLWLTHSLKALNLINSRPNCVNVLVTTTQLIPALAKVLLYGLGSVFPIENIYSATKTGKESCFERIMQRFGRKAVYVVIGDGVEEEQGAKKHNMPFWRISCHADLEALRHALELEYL
Target sequence (Q15475 whole entry, looked up): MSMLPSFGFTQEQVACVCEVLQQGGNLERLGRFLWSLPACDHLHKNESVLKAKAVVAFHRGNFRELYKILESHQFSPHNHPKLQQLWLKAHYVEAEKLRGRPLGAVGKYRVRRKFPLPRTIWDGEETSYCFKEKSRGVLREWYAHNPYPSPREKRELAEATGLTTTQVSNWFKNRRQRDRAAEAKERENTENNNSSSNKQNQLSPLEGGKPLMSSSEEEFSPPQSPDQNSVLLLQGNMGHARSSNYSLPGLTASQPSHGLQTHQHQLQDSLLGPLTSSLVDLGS
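AlphaScreen luminescence read after one hour at 37 °C in darkness. Pin-transferred compounds met GST-Six1 and His-Eya2 protein (5X stock 250 nM/500 nM) plus glutathione donor and Ni-chelate acceptor beads (5X, 50 ug/mL).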
Sfp inh = inhibitors of Bacillus subtilis Sfp phosphopantetheinyl transferase; Biochemical Sfp PPTase activity, qHTS; Potency, µM, for the others: max response, negative = inhibition, most hits filed as inhibitors; 310,000 tested, 3.5% active; AID 1490; active = well fitted inhibition curve with a large enough effect; inconclusive = small, poorly fitted or top-dose-only effect, or another doubt; inactive = no such curve, though single readings can be large or run the other way;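 note: the enzyme is Sfp with the accession as filed and its product quenches rhodamine fluorescence; potency is the fitted concentration of half-maximal effect; 0% = enzyme reaction without inhibitor and -100% = no enzyme wells; top concentration of the series not given in the record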
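With Hepes-Na pH 7.6 buffer containing 10 mM MgCl2, Sfp (15 nM) modified BHQ-2-YbbR (12.5 uM) using rhodamine-CoA (5 uM). Two reads 30 minutes apart at 525/598 nm yielded each well's rate.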
D2 potentiator = potentiates the human D2 dopamine receptor allosterically; AID 624464; DiscoveRx D2 beta-arrestin cells, luminescence, 90 min; 100% = 57 uM dopamine signal; potentiation, % (no concentration beside the values); P14416; 360,000 tested, 0.23% active; active = potentiation of 50% or more; inconclusive = 30% to 50%; inactive = 30% or less;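 note: compound concentration not given in the record; tested on top of an EC20 dose of dopamine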
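D2 cells co-treated with compound plus 50 nM dopamine (EC20) for 90 min at 37 deg C to detect potentiation. Beta-arrestin recruitment was read as enzyme-fragment luminescence after 1 h at ambient temperature. Full response was set by 57 uM dopamine.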
PINK1 expr mod = PINK1 expression modulation | PINK1 immunofluorescence, high-content cytometry, 24 h | Potency, µM (series often up to 76.6 µM), without a hit: at the top dose activation (PINK1 increase), hits mostly activators | 410,000 tested, 0.2% active | AID 624263; active = well fitted activation curve with a large enough effect; inconclusive = small, poorly fitted or top-dose-only effect; inactive = flat fitted curve, though single readings scatter; cell line not stated here;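 note: potency is the fitted concentration of half-maximal effect; % of control where 0% means no effect; nearly all actives have a fitted effect of over 65% in size; a mitochondrial uncoupler was the plate control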
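Fluorescence from anti-PINK1 antibody, together with nuclear and cell stains, was scanned on a laser-scanning cytometer. Before staining, stable-line cells were incubated 24 hours with compounds at 5 concentrations; primary antibody 12 h at 10 degrees C.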
D2 ag = human D2 receptor agonism in beta-arrestin assay. P14416. DiscoveRx PathHunter D2 beta-arrestin, luminescence, 90 min; 100% = 57 uM dopamine signal. activation, % (test concentration not listed). 360,000 tested, 0.084% active. AID 624465; in the data active = activation above about 40%; inconclusive = about 15% to 40%; inactive = below about 15%; note: compound concentration not given in the record; the text of the record calls up to 30% inactive
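DiscoveRx PathHunter D2 beta-arrestin cells (2,100/well) attached overnight, then compound-stimulated 90 min at 37 C in HBSS/10 mM HEPES/0.1% Tween-20 buffer; beta-galactosidase complementation read by luminescence after 1 h at ambient temperature. Dopamine 57 uM final (EC100) as control.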
TRPV1 PAM = human TRPV1 potentiation; TRPV1-expressing cells, Fluo-8 calcium influx, capsaicin EC20 potentiation; host cell line not named in the record; control for the full effect not named in the record; potentiation, % at 8.33 µM; AID 540277; 320,000 tested, 0.02% active; active means potentiation above 80%; inconclusive means 30% to 80%; inactive means below 30%; note: 0% is about no effect
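TRPV1-expressing cells were cultured overnight at 35.5C and loaded with Fluo-8 calcium dye for 40 to 90 min at room temperature. After a 10 s baseline, compound was added and calcium influx was read kinetically for 3 min (ex 480/em 520 nm).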
CtBP-E1A blk = CtBP/E1A binding inhibition; AID 651724; activity change, % (no concentration beside the values); 340,000 tested, 0.49% active; AlphaScreen GST-E1A/His-CtBP binding, 1536-well; stronger effect = lower value; control for the full effect not named in the record; in the data active means activity change below about -65%; inconclusive means about -30% to -65%; inactive means above about -30%; note: % is set by controls: 0 for no effect and ±100 for the full control effect; compound concentration not given in the record
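Protein mix (5X: 125 nM each GST-E1A, His-CtBP) was incubated with pinned compound 2 h at 37 deg C in dark, in 50 mM Tris pH 8.0 buffer with 300 mM NaCl. Glutathione donor and nickel acceptor beads followed; AlphaScreen signal read after 1 h.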
Active calls of the source: *; ? = inconclusive; . = not tested or not shown; [ ] = dose if it differs, or a comment.

compound | Six1-Eya2 inh | D2 ag | D2 potentiator | PINK1 expr mod | TRPV1 PAM | Sfp inh | CtBP-E1A blk
CN(c1ccccc1C(=O)Nc1ccc2c(c1)OCO2)S(C)(=O)=O | -13 | -2.1 | -4 | 3.6%[38.3 µM] | -6 | 4% | -10
COc1cccc(NC(=O)CCSc2ccc(C)cc2)c1 | 8 | 2.1 | -7 | -1.0% | -26 | -12% | -11
Cc1cc(OC(=O)c2ccc(S(=O)(=O)N3CCCC3)cc2)c([N+](=O)[O-])c(=O)[nH]1 | 1 | 1.2 | -7 | 0.0% | 9 | ? | .
COc1ccc(C(=O)Nc2cc3c4c(c2)C(C)C(=O)N4CCC3)c(OC)c1 (centres undefined) | 1 | -4.3 | 5 | 13% | -5 | . | -13
O=c1[nH]c2cc3c(cc2cc1CN(CCCO)C(=S)NCc1ccco1)OCO3 | -15 | 7.8 | 9 | 1.2% | 5 | ? | .
Cc1ccc(NC(=O)CSc2ccc(-c3cccnc3)nn2)cc1Cl | 4 | 9.3 | -4 | 2.0% | -1 | 18% | .
CCOc1ccccc1NS(=O)(=O)c1ccc2oc(=O)ccc2c1 | -1 | 3.7 | 3 | 3.0% | 5 | 16% | .
COc1ccc(-c2nnc(SC(C)C(=O)Nc3cccc(Cl)c3)o2)cc1 (centres undefined) | 8 | -1.8 | -3 | -1.8% | ? | 10% | -3
Cc1cccc(C(=O)NCC(=O)OCC(=O)N2CCCCC2)c1 | 7 | -1.0 | 3 | 0.4% | 8 | 15% | -8
COc1ccccc1C/C(N)=N/OC(=O)c1cccc([N+](=O)[O-])c1C | -7 | ? | 136* | -2.8% | -5 | -4% | 2

Later entries.
compound | Six1-Eya2 inh | D2 ag | D2 potentiator | PINK1 expr mod | TRPV1 PAM | Sfp inh | CtBP-E1A blk
COCCCNS(=O)(=O)c1ccccc1 | 4 | 0.7 | -10 | 25%[38.3 µM] | 1 | 9% | 5
COc1ccc(-c2nc3ccc(Cl)cn3c2Cc2cccc(F)c2)cc1OC | -1 | -3.6 | -3 | 1.1% | . | . | 2
COC(=O)c1cnc(Nc2cccc(C(F)(F)F)c2)c([N+](=O)[O-])c1 | -4 | 4.0 | 2 | 2.6% | -8 | -2% | -15
CC(=O)NCCc1nc2cc(NC(=O)c3cccs3)ccc2n1C | 4 | -1.2 | 4 | 2.0% | 9 | 14% | 10
Cc1c(NC(=O)/C(C#N)=C/c2c(Oc3ccccc3)nc3ccccn3c2=O)c(=O)n(-c2ccccc2)n1C | 7 | -0.2 | -7 | 0.4% | -1 | -4% | -1
CCOc1ccc2nc(NC(=O)CN3CCN(CC)CC3)sc2c1 | -2 | 4.2 | -3 | -0.4% | 6 | -6% | .
COc1ccc(Cc2nnc(SCC(=O)Nc3ccc(N4CCOCC4)cc3)o2)cc1 | -9 | -1.5 | -4 | -2.1% | 4 | 10% | 5
CC1(C)CC(=O)C2=C(C1)NC(Nc1nc3ccccc3o1)=NC21CCCCC1 | -1 | -4.7 | -7 | ? | -19 | 5% | 8
O=C(c1cccs1)N1C[C@@H](O)[C@H](n2cc(C3CC3)nn2)C[C@@H]1c1ccccc1 | 0 | -0.2 | . | -0.4% | . | . | 0
O=C1CCC/C1=c1\s/c(=C\c2cccnc2)c(=O)n1-c1ccccc1 | -1 | -3.1 | 4 | -0.3% | -26 | -22% | 1

(list continues)
compound | Six1-Eya2 inh | D2 ag | D2 potentiator | PINK1 expr mod | TRPV1 PAM | Sfp inh | CtBP-E1A blk
CC(NC(=O)c1nn(C)c(=O)c2ccccc12)c1ccccc1 (centres undefined) | -1 | 1.9 | -8 | 4.0%[38.3 µM] | 4 | 18% | -2
CC(=O)Nc1ccc(S(=O)(=O)N2CC(=O)NC(=O)C2)cc1 | 7 | -2.3 | -5 | -0.3% | -2 | 16% | 7
CCCCCOC(=O)c1ccc(NC(=O)c2cccc(NC(=O)c3ccccc3C(=O)O)c2)cc1 | -2 | -2.5 | 6 | -0.6% | -13 | 20% | .
Fc1ccc(NC(=S)N2CCOCC2)cc1Cl | 3 | 0.2 | -17 | 1.5% | -13 | -16% | 8
Cc1ccc2c(c1)nnn2C1CCN(C(=O)c2ccccc2F)CC1 | -17 | -4.1 | -5 | 0.0% | -13 | 5% | .
CCOc1ccc2nc(NC(=O)c3ccc(OC)c(S(=O)(=O)N4CCOCC4)c3)sc2c1 | -14 | 1.4 | -6 | 3.1% | -3 | -12% | -13
CS(=O)(=O)N(CC(=O)N1CCN(c2ccc(F)cc2)CC1)c1cccc(Cl)c1 | -1 | -2.1 | -15 | 15%[38.3 µM] | 16 | 7% | -8
Cc1ccc(CSc2nnc(SCC(=O)N/N=C/c3ccccc3OCC(=O)O)s2)cc1 | 0 | -2.9 | -5 | 0.6% | -12 | -28% | .
O=C1NC2(CCCCCC2)C(=O)N1Cc1ccccc1F | 9 | 8.8 | -2 | 1.3% | -52 | 8% | 3
Cc1cccc(NC(=O)CN(C)C(=O)c2ccc3ccccc3n2)c1C | 1 | -8.5 | -17 | 1.8% | -20 | . | 5

Additional results follow.
compound | Six1-Eya2 inh | D2 ag | D2 potentiator | PINK1 expr mod | TRPV1 PAM | Sfp inh | CtBP-E1A blk
CC(=O)c1c(C)[nH]c(C(=O)OC2CCCCC2=O)c1C (centres undefined) | -15 | -4.2 | 0 | 2.2% | -2 | 1% | -5
CC(C)CC(N)c1csc(Nc2cc(Oc3ccccc3)ncn2)n1 (centres undefined) | -14 | -0.6 | -8 | ? | . | . | ?
CC1=C(C(=O)N(C(C)C)C(C)C)CC(CC(=O)NC2CC2)C(=O)N1Cc1ccc(C(C)(C)C)cc1 (centres undefined) | -21 | . | . | 1.0% | . | . | -16
Cc1cc(C)n(CC(=O)NNC(=O)c2ccc(NC(=O)CC#N)cc2)n1 | -2 | -0.5 | 1 | 2.4% | 7 | . | 2
CC(C)CCn1cnc2c1c(=O)n(CC(=O)NC(N)=O)c(=O)n2Cc1ccccc1 | 4 | 4.2 | -2 | 2.3% | 22 | 6% | 2
Cc1cccc(CC(=O)c2c[nH]c3ccccc23)c1 | 9 | 0.4 | 0 | 0.4% | -10 | 8% | 6
Cc1cccc(C(C)C)c1NC(=O)C1CCN(S(=O)(=O)c2ccccc2)CC1 | -10 | -1.2 | -10 | 0.8% | -10 | 11% | -1
O=C(CN1C(=O)S/C(=C\c2ccccn2)C1=O)Nc1ccccc1 | 5 | 1.1 | -21 | 13% | -12 | -7% | 8
C[C@H](CO)N1C[C@H](C)[C@H](CN(C)Cc2ccc(C(=O)O)cc2)OCc2ccccc2-c2c(n(C)c3ccccc23)C1=O | 6 | ? | -4 | -1.0% | . | . | 6
Cc1ccc(OC(C)C(=O)N=Nc2c(O)[nH]c3ccc([N+](=O)[O-])cc23)cc1 (centres undefined) | -23 | -6.1 | -5 | ? | 4 | 4% | -2

Additional records:
compound | Six1-Eya2 inh | D2 ag | D2 potentiator | PINK1 expr mod | TRPV1 PAM | Sfp inh | CtBP-E1A blk
CCOc1cc(C)c(S(=O)(=O)N2CCCCC2)cc1C | 16 | -8.2 | -1 | 6.6% | 22 | 4% | 34
Cc1[nH]c(=O)[nH]c(=O)c1N(C)C | 0 | -4.1 | 1 | -0.7% | 1 | 13% | .
CC(C)NS(=O)(=O)c1ccc(OCC(=O)NC2CCCCCC2)cc1 | 13 | 3.6 | -7 | -1.4% | -3 | 6% | -2
CC(C)SCCCCOc1ccc2ccccc2c1 | 44 | -1.3 | -4 | -1.1%[38.3 µM] | -2 | -12% | 49
CCOC(=O)C(CCCCCCC(NC(C)=O)(C(=O)OCC)C(=O)OCC)(NC(C)=O)C(=O)OCC | 1 | -6.5 | -7 | 0.4% | 15 | 3% | -2
O=C(CCSc1ccccc1)Nc1ccc(S(=O)(=O)Nc2ncccn2)cc1 | 3 | 1.2 | -4 | 0.6% | 3 | 8% | -4
O=C(O)CC(c1ccc(F)cc1F)N1Cc2ccccc2C1=O (centres undefined) | -5 | -0.5 | -2 | 0.3% | -2 | 20% | 10
COc1ccc(CCNC(=O)COc2ncnc3ccccc23)cc1OC | 5 | 1.8 | -7 | 1.1% | 6 | -7% | ?
CCN(CC)S(=O)(=O)c1ccc(N2Cc3ccccc3C2=N)cc1 | 2 | -2.0 | -10 | -0.1% | -9 | 7% | -14
O=C1CN(C(=O)NCCC(=O)NC2CCCCC2)c2ccccc2N1 | -1 | 1.1 | -10 | 2.1% | 8 | 12% | .

(continued)
compound | Six1-Eya2 inh | D2 ag | D2 potentiator | PINK1 expr mod | TRPV1 PAM | Sfp inh | CtBP-E1A blk
Nc1ccccc1NC(=O)NC(=O)c1ccccc1 | 0 | -2.3 | -2 | 0.3% | 2 | -3% | 0
Cc1ccc(Cn2c(CN3CCOCC3)nc3c2c(=O)n(C)c(=O)n3C)cc1 | -2 | -1.9 | -6 | -1.4% | -4 | 8% | -1
O=C(O)Cn1c(-c2cscn2)nc2ccccc21 | 4 | -0.9 | -5 | -2.8% | 1 | -14% | 0
O=C(O)CSc1ncnc2c1oc1ccccc12 | 2 | -1.8 | -1 | -0.3% | 2 | 14% | -5
CC(=O)c1ccc(S(=O)(=O)NC2CC(=O)N(c3cccc(F)c3)C2)cc1 (centres undefined) | -4 | -1.4 | -1 | -0.3% | 6 | . | 4
COc1cc(C)c(S(=O)(=O)N2CCOCC2)cc1C(C)C | 11 | 1.1 | 4 | 2.9%[38.3 µM] | -4 | 2% | 8
Cc1nnc(SCC2=C(C(=O)O)N3C(=O)C(NC(=O)c4cccc(F)c4F)C3SC2)s1 (centres undefined) | -3 | -2.9 | -14 | -0.1% | 8 | 56µM* | -15
O=C(NC(CO)Cc1ccc([N+](=O)[O-])cc1)C(Cl)Cl (centres undefined) | 14 | -2.9 | -5 | -0.3% | 2 | 22% | 5
COc1ccc(N2CC(C(=O)N[C@@H](C)C(=O)NCc3ccccc3OC)CC2=O)cc1 (some centres undefined) | 7 | 4.2 | 8 | 3.4% | -14 | 29% | .
O=C(COc1cccc(NC(=O)c2cccc([N+](=O)[O-])c2)c1)c1ccc(F)cc1 | -15 | 2.4 | 22 | -0.3% | 3 | 9% | -2
COc1cccc(NC(=O)CN(C)C(=O)c2cccc(S(=O)(=O)Nc3ccc(C)cc3)c2)c1 | -1 | 3.4 | -3 | 1.0% | 12 | . | 0
O=C(C1CCN(S(=O)(=O)c2ccccc2)CC1)N1CCc2ccccc21 | 3 | -2.5 | -4 | -0.5% | -1 | ? | 5
